Screens deposited in PubChem by Broad Institute.
DUX4 txn inh – DUX4-mediated transcription inhibition. 293T-iDUX4 ZSCAN4-Gaussia luciferase reporter, 24 h; active compounds read low. activity change, negative = inhibition, % (concentration not given with the values). hit rate 0.8% among 37,000. AID 1224904;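 active means -10% or lower and over 25 points stronger than a control reporter; inconclusive means -10% or lower with a smaller gap; inactive means above -10%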;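 further: 0% = median of neutral control wells and -100% = median of positive control wells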
DUX4 txn inh difference – further read-out of DUX4 txn inh, marked with its call; Gaussia minus Italica difference, %; measured here: selective DUX4 reporter inhibition;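 worked out from the two reporters; negative = selective loss of the DUX4 reporter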
DUX4 txn inh control – second read-out of DUX4 txn inh, no call of its own (marks repeat the call); activity change, negative = inhibition, %; measured here: Italica tet-on control reporter;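 0 = neutral control and -100 = positive control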
* marks the source's active call; other numbers are inactive results; ? = inconclusive; . = no result given. The list is partial; count on the stated rates, not on these rows.

cpd	Structure	DUX4 txn inh control	DUX4 txn inh difference	DUX4 txn inh
1	CN1C(=O)c2cc(NC(=O)CC(F)(F)F)ccc2OC[C@H]2O[C@@H](CC(=O)NC3CCC3)CC[C@@H]21	-0.4	-2	-2
2	CCCNC(=O)N(C)C[C@@H]1Oc2ncc(C#CC3CCCCC3)cc2C(=O)N([C@@H](C)CO)C[C@@H]1C	2.9	-1	2
3	CO[C@H](CN(C)CC1CCOCC1)[C@@H](C)CN(C(=O)Nc1ccc(F)cc1)[C@@H](C)CO	3.6	1	5
4	CO[C@H]1CN(C)C(=O)c2cc(NS(=O)(=O)c3ccccc3)ccc2OC[C@H](C)N(Cc2cccnc2)C[C@H]1C	0.4	1	2
5	C/C=C/c1ccc([C@@H]2[C@@H](CO)N(C(C)=O)C23CN(C(=O)c2cnccn2)C3)cc1	2.2	-1	1
6	O=C(Nc1ccc(F)cc1)N1CCCCN2[C@H](C1)[C@@H](c1ccc(C#Cc3ccccc3)cc1)[C@@H]2CO	.	.	?
7	CCCNC(=O)N(C)C[C@@H]1Oc2ncc(C#CC3CCCCC3)cc2C(=O)N([C@H](C)CO)C[C@H]1C	-2.9	5	2
8	O=C([C@@H]1[C@@H](CO)[C@@H]2Cn3c(ccc(C4=CCCCC4)c3=O)[C@H]1N2)N1CCCCC1	1.6	-2	0
9	COCC(=O)Nc1ccc2c(c1)OC[C@@H](C)N(CCC(F)(F)F)C[C@@H](C)[C@@H](OC)CN(C)C2=O	-0.7	5	4
10	C/C=C/c1ccccc1[C@@H]1[C@@H](C#N)N(C(=O)NC2CCCCC2)[C@H]1CO	-6.2	3	-3
11	O=C(Cc1ccccc1)N1CC2(C1)[C@H](c1ccccc1)[C@@H](CO)N2S(=O)(=O)Cc1ccccc1	.	.	?
12	COc1ccc(C#Cc2ccc3c(c2)[C@@H]2[C@@H](CCN2C(=O)CN2CCOCC2)[C@H](CO)N3C)cc1	6.4	-9	-2
13	C[C@@H](NC(=O)C[C@@H]1C[C@@H]2c3cc(NC(=O)CN(C)C)ccc3O[C@@H]2[C@H](CO)O1)c1ccccc1	3.3	5	8
14	COc1cccc(NC(=O)Nc2ccc3c(c2)C(=O)N(C)C[C@H](OC)[C@@H](C)CN(C)[C@H](C)CO3)c1	-1.6	-1	-2
15	O=C(C[C@@H]1CC[C@@H]2[C@H](COC[C@H](O)CN2S(=O)(=O)c2ccc(Oc3ccccc3)cc2)O1)Nc1ccccc1	.	.	?
16	CN(C)CCCNC(=O)C[C@@H]1CC[C@H]2[C@H](COc3ccc(NC(=O)c4cccc(F)c4)cc3C(=O)N2C)O1	0.0	-1	-1
17	Cc1noc(C)c1NC(=O)Nc1ccc2c(c1)C(=O)N([C@H](C)CO)C[C@H](C)[C@@H](CN(C)S(=O)(=O)c1cn(C)cn1)OCCCC[C@@H](C)O2	-2.8	1	-2
18	O=C(C[C@H]1C[C@H]2c3cc(NS(=O)(=O)c4ccc(F)cc4)ccc3O[C@H]2[C@@H](CO)O1)NCc1ccc(Oc2ccccc2)cc1	.	.	?
19	CO[C@@H]1CN(C)C(=O)c2ccc(NC(=O)C3CC3)cc2OC[C@@H](C)N(Cc2nccs2)C[C@@H]1C	5.4	-8	-3
20	CCNC(=O)C[C@@H]1CC[C@H]2[C@H](COc3ccc(NC(=O)c4ccc(C(F)(F)F)cc4)cc3C(=O)N2C)O1	0.0	0	0
21	O=C(NCC[C@@H]1CC[C@H](NC(=O)C2CC2)[C@@H](CO)O1)Nc1ccc(C(F)(F)F)cc1	0.9	3	4
22	C/C=C/c1ccc([C@@H]2[C@@H](CN(CC)C(=O)CN(C)C)N(C(C)=O)[C@H]2CO)cc1	0.3	-1	0
23	COC(=O)C[C@H]1CC[C@H]2[C@H](COc3ccc(NC(=O)Nc4ccc(Cl)cc4)cc3C(=O)N2C)O1	1.5	1	3
24	C[C@@H]1CN([C@@H](C)CO)C(=O)c2cc(NC(=O)CCCN(C)C)ccc2O[C@@H](C)CCCCO[C@@H]1CN(C)C(=O)Cc1ccccc1	-1.1	-1	-2
25	CCCC(=O)N1C[C@@H]2[C@H](c3ccccc31)[C@H](CO)N2C(=O)CC1CC1	-5.8	3	-3

The list goes on; it opens with the 5 that closed the last part.
cpd	Structure	DUX4 txn inh control	DUX4 txn inh difference	DUX4 txn inh
21	O=C(NCC[C@@H]1CC[C@H](NC(=O)C2CC2)[C@@H](CO)O1)Nc1ccc(C(F)(F)F)cc1	0.9	3	4
22	C/C=C/c1ccc([C@@H]2[C@@H](CN(CC)C(=O)CN(C)C)N(C(C)=O)[C@H]2CO)cc1	0.3	-1	0
23	COC(=O)C[C@H]1CC[C@H]2[C@H](COc3ccc(NC(=O)Nc4ccc(Cl)cc4)cc3C(=O)N2C)O1	1.5	1	3
24	C[C@@H]1CN([C@@H](C)CO)C(=O)c2cc(NC(=O)CCCN(C)C)ccc2O[C@@H](C)CCCCO[C@@H]1CN(C)C(=O)Cc1ccccc1	-1.1	-1	-2
25	CCCC(=O)N1C[C@@H]2[C@H](c3ccccc31)[C@H](CO)N2C(=O)CC1CC1	-5.8	3	-3
26	C/C=C/c1ccc([C@H]2[C@H](CO)N(C(=O)CN(C)C)C23CN(C(=O)C2CCOCC2)C3)cc1	7.2	8	15
27	CN(C)CC(=O)Nc1ccc2c(c1)[C@H]1C[C@@H](CC(=O)NCc3cc(F)ccc3F)O[C@H](CO)[C@H]1O2	4.0	2	6
28	CO[C@@H]1CC[C@H]2CCOc3ccc(C#N)cc3C(=O)N(C)C[C@@H](c3ccccc3)CC(=O)N(C)C[C@H]1O2	1.9	1	3
29	C[C@H]1CN([C@@H](C)CO)C(=O)c2ccccc2-c2ccccc2CO[C@@H]1CN(C)S(=O)(=O)c1cccc(C#N)c1	6.2	-7	-1
30	O=C(Nc1cc(F)ccc1F)N1CCCCN2[C@H](CO)[C@@H](c3ccc(-c4cccnc4)cc3)[C@H]2C1	-3.3	19	15
31	CC(C)CC#Cc1ccc([C@H]2[C@@H](CO)N3C(=O)CN(C(=O)c4ccccn4)C[C@@H]23)cc1	7.2	-1	6
32	O=C(NC1CCCC1)N1CCCCN2[C@H](C1)[C@H](c1ccc(-c3ccccc3)cc1)[C@@H]2CO	-4.9	6	1
33	O=C(C[C@H]1CC[C@@H](NC(=O)c2ccccn2)[C@H](CO)O1)NCc1cc(F)cc(F)c1	-1.2	-3	-4
34	Cc1noc(C)c1S(=O)(=O)N(C)C[C@@H]1OCCCC[C@H](C)Oc2ccc(NC(=O)c3ccccc3)cc2C(=O)N([C@@H](C)CO)C[C@H]1C	0.6	1	2
35	COc1ccc(NC(=O)N(C)C[C@@H]2OCCCC[C@@H](C)Oc3ccc(NC(=O)c4ccncc4)cc3C(=O)N([C@H](C)CO)C[C@H]2C)cc1	-0.3	-5	-5
36	N#C[C@H]1[C@H](c2ccccc2-c2cccc(F)c2)[C@@H](CO)N1C(=O)C1CCOCC1	3.2	5	9
37	CCC(=O)Nc1ccc2c(c1)C(=O)N(C)[C@H]1CC[C@H](CC(=O)N[C@H](C)c3ccccc3)O[C@@H]1CO2	-1.8	2	0
38	CC(C)NC(=O)N1C[C@@H]2[C@H](c3ccccc31)[C@H](CO)N2C(=O)c1ccc(F)cc1	1.1	0	1
39	C[C@H](CO)N1C[C@H](C)[C@@H](CN(C)Cc2ccc(-c3ccccc3)cc2)Oc2ccc(NS(=O)(=O)c3cn(C)cn3)cc2C1=O	5.6	-1	5
40	CCN1[C@H](C(=O)NC2Cc3ccccc3C2)[C@@H](CO)[C@@H]2Cn3c(ccc(C4=CCCCC4)c3=O)[C@@H]21	-5.1	-1	-6
41	CC(=O)N1[C@@H](CO)[C@@H]2c3ccccc3N(C(=O)c3ccc(F)cc3)C[C@@H]21	4.1	-1	4
42	CC(C)NC(=O)NCC[C@H]1CC[C@@H](NS(=O)(=O)c2ccc(Oc3ccccc3)cc2)[C@@H](CO)O1	.	.	?
43	CO[C@H]1CN(C)C(=O)c2ccc(NC(=O)c3ccc(F)cc3)cc2OC[C@H](C)N(C)C[C@H]1C	4.1	-14	-9
44	N#C[C@@H]1[C@@H](c2ccc(C#CC3CCCCC3)cc2)[C@H](CO)N1C(=O)c1cccc(F)c1	2.0	-3	-1
45	OC[C@@H]1[C@H](c2ccc(-c3ccccc3F)cc2)[C@H]2CN(Cc3cccnc3)CCCCN12	0.2	10	10
46	C/C=C/c1cccc(-c2nc(C(=O)NCc3ccncc3)cc3c2[C@H](CCO)N([S@@](=O)C(C)(C)C)C3)c1	0.1	-1	-1
47	O=C(C[C@H]1C[C@H]2c3cc(NC(=O)C4CCC4)ccc3O[C@H]2[C@H](CO)O1)NCc1ccccc1F	-0.4	7	6
48	CCCN1[C@@H]2Cn3c(ccc(C4=CCCC4)c3=O)[C@H]1[C@@H](C(=O)NCc1ccccn1)[C@@H]2CO	-2.8	-1	-4
49	O=C(C[C@H]1CC[C@@H]2[C@H](COC[C@H](O)CN2C(=O)c2cnccn2)O1)NCc1ccc(F)cc1	9.9	9	19
50	COc1ccc2c3c([nH]c2c1)[C@H](CO)N(C)CC31CCN(C(=O)c2ccccn2)CC1	9.7	-5	5

Compound profiles, from the list above. Order of screens: DUX4 txn inh control	DUX4 txn inh difference	DUX4 txn inh
Results for CO[C@@H]1CC[C@H]2CCOc3ccc(C#N)cc3C(=O)N(C)C[C@@H](c3ccccc3)CC(=O)N(C)C[C@H]1O2 : 1.9	1	3
Results for C[C@H](CO)N1C[C@H](C)[C@@H](CN(C)Cc2ccc(-c3ccccc3)cc2)Oc2ccc(NS(=O)(=O)c3cn(C)cn3)cc2C1=O : 5.6	-1	5

Following part.
cpd	Structure	DUX4 txn inh control	DUX4 txn inh difference	DUX4 txn inh
51	O=C(Nc1cc(F)ccc1F)N1CC(=O)N2[C@H](CO)[C@@H](c3ccc(/C=C/c4ccccc4)cc3)[C@H]2C1	-0.6	-5	-6
52	COc1ccc(S(=O)(=O)N(C)C[C@@H]2Oc3ccc(NC(=O)Cc4cn(C)c5ccccc45)cc3C(=O)N([C@H](C)CO)C[C@@H]2C)cc1	1.2	-2	-1
53	CS(=O)(=O)N1[C@H](C#N)[C@@H](c2ccccc2-c2ccccc2F)[C@H]1CO	6.2	-8	-1
54	O=C(O)C[C@@H]1C[C@H]2c3cc(NC(=O)NC4CCCC4)ccc3O[C@H]2[C@@H](CO)O1	2.5	0	2
55	O=C(Nc1ccccc1F)N1CC(=O)N2[C@@H](CO)[C@H](c3ccc(C#CC4CC4)cc3)[C@@H]2C1	.	.	?
56	C[C@@H]1CN([C@@H](C)CO)C(=O)c2c(c3ccccc3n2C)-c2ccccc2CO[C@@H]1CN(C)Cc1cccc(F)c1	.	.	?
57	Cc1noc(C)c1S(=O)(=O)N(C)C[C@H]1OCc2ccccc2-c2c(n(C)c3ccccc23)C(=O)N([C@H](C)CO)C[C@@H]1C	2.3	-1	2
58	CNC(=O)C[C@@H]1CC[C@@H]2[C@H](COC[C@@H](O)CN2Cc2ccc(C(F)(F)F)cc2)O1	-5.4	-3	-8
59	COc1cccc(CNC(=O)C[C@@H]2CC[C@@H]3[C@H](COc4ccc(NC(=O)c5cccs5)cc4C(=O)N3C)O2)c1	-2.7	-2	-5
60	O=C(C[C@H]1C[C@@H]2c3cc(NC(=O)CC4CC4)ccc3O[C@@H]2[C@H](CO)O1)NCc1cc(F)ccc1F	-0.3	-4	-4
61	CC(C)C(=O)Nc1ccc2c(c1)C(=O)N(C)[C@@H]1CC[C@@H](CC(=O)O)O[C@@H]1CO2	-1.2	1	-1
62	Cc1cc(C(=O)Nc2ccc3c(c2)C(=O)N(C)[C@H]2CC[C@H](CC(=O)N[C@H](C)c4ccccc4)O[C@H]2CO3)no1	3.6	-3	1
63	C[C@H]1CN([C@@H](C)CO)C(=O)CCCn2cc(nn2)CO[C@H]1CN(C)Cc1ccc(Cl)c(Cl)c1	1.1	-1	0
64	CCCC(=O)N1CC2(CN(Cc3cccnc3)C2)c2c([nH]c3cc(OC)ccc23)[C@H]1CO	5.6	2	8
65	O=C(Nc1cccc(F)c1)N1CCCCN2[C@H](CO)[C@@H](c3ccc(C#CC4CC4)cc3)[C@H]2C1	.	.	?
66	O=C(c1ccccn1)N1CC(=O)N2[C@H](CO)[C@H](c3ccc(C#CC4CCCC4)cc3)[C@@H]2C1	13	-2	12
67	CCC(=O)N1[C@@H]2Cn3c(cccc3=O)[C@H]1[C@@H](C(=O)NC1CCC1)[C@@H]2CO	-3.4	1	-3
68	C[C@H]1CN([C@@H](C)CO)C(=O)c2cccc(NC(=O)Nc3ccc4c(c3)OCO4)c2O[C@@H]1CN(C)S(C)(=O)=O	4.6	-6	-1
69	CCNC(=O)[C@H]1[C@H](CO)[C@H]2Cn3c(ccc(-c4ccccc4F)c3=O)[C@@H]1N2C(=O)CC	-0.6	10	10
70	COc1ccccc1S(=O)(=O)N1C[C@@H]2N[C@H](C1)C2c1ccc(-c2cccc(F)c2)cc1 (stereo partly specified)	.	.	?
71	CCC(=O)N1CC(=O)N2[C@H](C1)[C@@H](c1ccc(-c3cccnc3)cc1)[C@@H]2CO	11	-7	4
72	CS(=O)(=O)Nc1ccc2c(c1)[C@@H]1C[C@H](CC(=O)NCc3ccc(Oc4ccccc4)cc3)O[C@H](CO)[C@@H]1O2	-0.1	0	0
73	CC(=O)N1[C@H](CO)[C@H](c2ccc(-c3cccnc3)cc2)[C@H]1CNC(=O)C1CCC1	3.7	-1	2
74	COCC#Cc1ccc2c(c1)O[C@@H](CN(C)C(=O)C1CCOCC1)[C@H](C)CN([C@H](C)CO)S2(=O)=O	-1.1	-2	-3
75	CC(=O)N1[C@H](C(=O)NCc2ccccc2Cl)[C@@H](CO)[C@@H]2Cn3c(ccc(-c4ccncc4)c3=O)[C@@H]21	-1.6	2	0
76	O=C(Nc1cccc(F)c1)N1C[C@H]2[C@@H](c3ccccc31)[C@H](CO)N2C(=O)c1ccccn1	-1.4	0	-1
77	C[C@H](CO)N1C[C@H](C)[C@@H](CN(C)Cc2ccc(O)cc2)OCc2cnnn2CCCC1=O	1.3	-2	-1
